TRPV1 potentiator = HTS Assay for Compounds that Act as Potentiators of the Vanilloid Receptor 1; Transient receptor potential cation channel subfamily V member 1 (Homo sapiens), Q8NER1; TRPV1-expressing cells, Fluo-8 calcium influx, capsaicin EC20 potentiation; host cell line not named in the record; control for the full effect not named in the record; potentiation, % at 8.33 µM; 320,000 compounds, 0.02% hits; active means potentiation above 80%; inconclusive means 30% to 80%; inactive means below 30%; also: 0% is about no effect
Target sequence (Q8NER1 whole entry, looked up): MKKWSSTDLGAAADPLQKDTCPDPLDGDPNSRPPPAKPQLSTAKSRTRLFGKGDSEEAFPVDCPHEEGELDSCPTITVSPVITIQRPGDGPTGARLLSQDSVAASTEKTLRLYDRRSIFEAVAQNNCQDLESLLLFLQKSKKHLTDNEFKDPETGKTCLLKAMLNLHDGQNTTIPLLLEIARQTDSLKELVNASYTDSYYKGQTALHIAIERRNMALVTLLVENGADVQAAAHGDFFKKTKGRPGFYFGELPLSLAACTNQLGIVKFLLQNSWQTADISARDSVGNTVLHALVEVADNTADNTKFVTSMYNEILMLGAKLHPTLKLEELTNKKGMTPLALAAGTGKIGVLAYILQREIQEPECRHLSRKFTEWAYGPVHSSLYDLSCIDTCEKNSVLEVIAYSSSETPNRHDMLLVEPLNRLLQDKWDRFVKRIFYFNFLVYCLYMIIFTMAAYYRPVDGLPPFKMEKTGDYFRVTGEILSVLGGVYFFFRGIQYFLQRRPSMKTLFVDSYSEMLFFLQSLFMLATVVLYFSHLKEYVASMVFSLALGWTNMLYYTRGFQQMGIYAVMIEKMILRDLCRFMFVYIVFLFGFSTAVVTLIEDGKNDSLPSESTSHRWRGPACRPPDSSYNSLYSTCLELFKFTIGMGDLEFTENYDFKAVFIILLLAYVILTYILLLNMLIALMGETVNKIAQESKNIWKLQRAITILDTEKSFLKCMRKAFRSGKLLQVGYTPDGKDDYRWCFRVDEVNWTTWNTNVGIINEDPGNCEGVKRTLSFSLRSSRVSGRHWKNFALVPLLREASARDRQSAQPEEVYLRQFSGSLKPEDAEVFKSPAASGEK
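Fluo-8 calcium influx in TRPV1-expressing cells, kinetic read (ex 480/em 520 nm). Compound added and read 3 min for agonist activity, followed by capsaicin at EC20 final and 2 min further read for enhancement.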
ClpP mod = qHTS Assay for Activators of ClpP | ATP-dependent Clp protease proteolytic subunit (Bacillus subtilis (strain 168)), P80244 | purified B. subtilis ClpP, FRET peptide cleavage, 20 min | Potency, µM (top dose mostly 57.5 µM), for the others: at the top dose activity change, negative = active | 340,000 compounds, 1.9% hits | AID 651965, 2013; active = well fitted falling curve with a large enough effect; inconclusive = small, poorly fitted or top-dose-only effect; inactive = no such curve, though single readings can be large or run the other way; also: potency is read from the fitted curve at half-maximal effect; the source files actives as falling curves though it sought activators and does not explain the sign; nearly all actives have a fitted effect of over 65% in size; many hits overshoot -100%
Target sequence (P80244 whole entry, looked up): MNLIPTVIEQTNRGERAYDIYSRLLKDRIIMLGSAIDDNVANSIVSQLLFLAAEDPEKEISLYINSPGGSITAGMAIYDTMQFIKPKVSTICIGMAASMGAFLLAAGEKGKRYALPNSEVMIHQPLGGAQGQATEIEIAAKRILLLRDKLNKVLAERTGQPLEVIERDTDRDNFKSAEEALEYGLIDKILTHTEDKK
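FRET quenching reversal measured ClpP activation: 10 microg/mL B. subtilis ClpP at pH 8 with the FRET-FV decapeptide, read at 430 nm after 320 nm excitation. The 20-min minus 0-min signal was scaled between DMSO/no-enzyme wells and ADEP (5.8 microM final).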
CtBP-E1A inh = qHTS Assay for Inhibitors of the CtBP/E1A Interaction. CtBP / adenovirus E1A interaction (AlphaScreen). AlphaScreen GST-E1A/His-CtBP binding, 1536-well; stronger effect = lower value; control for the full effect not named in the record. activity change, % (test concentration not listed). 340,000 compounds, 0.49% hits; in the data active means activity change below about -65%; inconclusive means about -30% to -65%; inactive means above about -30%; also: % is scaled to controls: 0 for no effect and ±100 for the full control effect
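In 5 uL wells, 23 nL compound meets equimolar GST-E1A and His-CtBP (5X stock 125 nM each) for 2 h, 37 °C. Beads (5X, 50 ug/mL) then 1 h, 37 °C, dark.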
gsp antagonist = qHTS for Antagonists of gsp, the Etiologic Mutation Responsible for Fibrous Dysplasia/McCune-Albright Syndrome: qHTS; gsp-mutant cells, cAMP HTRF, 30 min; control for the full effect not named in the record; Potency, µM (highest dose often 76.9 µM), without a hit: at the top dose activity change, negative = inhibition, actives largely listed as inhibitors; 340,000 compounds, 0.4% hits; AID 624288, 2012; active = falling curve of any shape with a large fitted effect; inconclusive = falling curve, mostly with a smaller effect; inactive = flat or rising curve; cell line not stated here;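 also: intracellular cAMP measured with PDE inhibitor Ro 20-1724 present during compound exposure; potency is read from the fitted curve at half-maximal effect; % is scaled to controls: 0 for no effect and ±100 for the full control effect; nearly all actives have a fitted effect of over 65% in size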
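Cells, 2000/well, grown 16–24 h in DMEM 10% FBS with 0.5 mg/ml G418, then compounds plus […] (300 uM addition stock), 30 min at 37C. cAMP read by HTRF (cAMP-d2 and anti-cAMP antibody-K in lysis buffer) after 30 min RT.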
Menin-MLL FL inh = qHTS Assay for Inhibitors Targeting the Menin-MLL Interaction in MLL Related Leukemias: Competition With Fluorescein Labeled MLL-derived Peptide | FP activity change, % at 61.4 µM | AID 1766, 2009 | Fluorescence polarization, fluorescein-MLL peptide displacement from menin | 290,000 tested, under 10 active; inconclusive = falling polarisation curve, or a change in total fluorescence; inactive = total fluorescence flat and polarisation flat or rising; no compound was filed as active; the % refers to the polarisation; negative = inhibition;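 also: % of control where 0% means no effect; inhibitors lower the polarisation; unlabelled MLL peptide was the positive control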
Sfp inh = qHTS Assay for Inhibitors of Bacillus subtilis Sfp phosphopantetheinyl transferase (PPTase); Biochemical Sfp PPTase activity, qHTS; AID 1490, 2009; Potency, µM, for the others: max response, negative = inhibition, hits mostly inhibitors; 310,000 compounds, 3.5% hits; 4'-phosphopantetheinyl transferase ffp (Bacillus subtilis), Q9F4F7; active = well fitted inhibition curve with a large enough effect; inconclusive = small, poorly fitted or top-dose-only effect, or another doubt; inactive = no such curve, though single readings can be large or run the other way;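 also: the enzyme is Sfp with the accession as filed and its product quenches rhodamine fluorescence; potency is read from the fitted curve at half-maximal effect; 0% = enzyme reaction without inhibitor and -100% = no enzyme wells; top concentration of the series not given in the record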
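Buffer: 50 mM Hepes-Na pH 7.6, 10 mM MgCl2, 0.01% Nonidet P-40, 0.01% BSA. Enzyme 15 nM, pre-exposed to compound 15 min; substrates then added and fluorescence change tracked over 30 min.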
gsp agonist = qHTS for Agonist of gsp, the Etiologic Mutation Responsible for Fibrous Dysplasia/McCune-Albright Syndrome: qHTS; gsp mutant cells, cAMP HTRF, 30 min; control for the full effect not named in the record; Potency, µM (titrated, usually from 76.9 µM), inactives show at the top dose activation (cAMP increase), hits mostly activators; 340,000 compounds, 0.13% hits; AID 624287, 2012; active = well fitted activation curve with a large enough effect; inconclusive = small, poorly fitted or top-dose-only effect, or another doubt; inactive = no such curve, though single readings can be large or run the other way; cell line not stated here;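 also: phosphodiesterase inhibitor Ro 20-1724 added with compounds to block cAMP breakdown; potency is read from the fitted curve at half-maximal effect; nearly all actives have a fitted effect of over 60% in size; about a fifth of the inactives were tested at one dose only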
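Cells in DMEM/10% FBS with G418 were pretreated with compounds in DMSO plus […] (300 uM stock) for 30 min at 37C. cAMP was measured by HTRF (cAMP-d2 plus anti-cAMP antibody-K) after 30 min at room temperature.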
Starred values were filed as active, the others as inactive; ? = inconclusive; / = no result given; [ ] = remark or other dose.

SMILES	TRPV1 potentiator	ClpP mod	CtBP-E1A inh	gsp antagonist	Menin-MLL FL inh	Sfp inh	gsp agonist
CCc1nc(SCC(=O)c2ccc3c(c2)OCCO3)c2ccccc2n1	-6	-1.9%	6	-19%	2.6	50µM*	19%
CCNS(=O)(=O)c1ccc(OC)c(C)c1	17	-2.3%	-1	-8%	3.1	5%	12%
CC1CCN(c2ccccc2NC(=S)NC(=O)c2cccs2)CC1	-4	0.3%	-22	3%	-0.7	12%	-19%
Cc1cc(C)cc(NC(=O)N2CCN(Cc3ccc4c(c3)OCO4)CC2)c1	-18	1.0%	/	-2%	2.5	-15%	0%
COc1ccc(N2CC(C(=O)N3CCN(c4ccccc4OC)CC3)CC2=O)cc1 (centres undefined)	0	/	6	1%	/	13%	7%
CCOC(=O)CN1CC23C=CC(O2)C(C(=O)Nc2cc(OC)ccc2OC)C3C1=O (centres undefined)	23	-0.2%	-2	7%	-1.1	14%	1%
CCN1C(=O)C(C(=O)Nc2ccc(OC)cc2)C2CC1(C)Oc1ccccc12 (centres undefined)	-18	0.9%	-1	-13%	1.2	7%	-42%[inhibitor]
Cc1ccc(CNC(=O)c2cccc(OCc3c(C)noc3C)c2)cc1	10	-0.6%	3	-15%	6.5	7%	-16%
Cc1c(C(=O)OCC(=O)N2CCN(c3ccccc3)CC2)oc2ccccc12	/	/	-16	-20%	/	/	-21%
Cc1ccc(/C=N/NC(=O)CSCc2ccc(Cl)cc2)cc1	-7	-1.4%	-2	-10%	0.8	-11%	-2%
c1ccc(OCCN2CCN(C(c3ccccc3)c3ccccc3)CC2)cc1	12	-2.3%	-24	-5%	-3.1	-5%	4%
O=C(CSC1CN(C(c2ccccc2)c2ccccc2)C1)N/N=C/c1ccccc1	-19	/	-4	-9%	-2.8	2%	3%[15.4 µM]
CC1CCCN(c2ccc(C(=O)NCc3ccccc3)cn2)C1 (centres undefined)	-7	/	-1	-2%	-0.4	10%	13%
COc1ccc(CNC(=O)CNC(C)c2ccc(F)cc2)cc1 (centres undefined)	4	-0.2%	1	-5%	-1.5	-17%	15%
COc1cccc(OC)c1OCCCCCc1c(C)n[nH]c1C	10	1.0%	-7	-7%	0.0	7%	?
O=C(c1cccc(Cl)c1)N1CCN(c2ccc(N3CCOCC3)nn2)CC1	29	3.9%	7	-6%	/	/	-54%[inhibitor]
CC1=Nc2ccccc2/C1=C\c1sc(Nc2ccc(C)cc2)nc1O	14	-4.1%	-14	-2%	?	-20%	-29%
CC(C)(CNC(=O)c1ccc(NS(=O)(=O)c2ccc(Br)cc2)cc1)N1CCOCC1	2	1.0%	13	-16%	/	/	0%
O=C(O)C1CCCCN1S(=O)(=O)c1ccc2ccccc2c1 (centres undefined)	-18	0.4%	5	-12%	-1.4	19%	-7%
COc1ccc(N2C(=O)C(CC(=O)Nc3ccccc3)N(Cc3cccs3)C2=O)cc1 (centres undefined)	7	1.0%	1	-12%	-2.9	-1%	-44%[inhibitor]
COc1ccc(C2=NS(=O)(=O)N(C)C(C(=O)N3CCC(C(N)=O)CC3)=C2)cc1	6	-5.5%	-2	4%	2.8	-5%	-13%
COc1cc(OC)cc(C(=O)N2CCN(c3ccccc3F)CC2)c1	-9	0.1%	7	8%	0.5	-6%	-3%
COc1cc(C(=S)N2CCOCC2)cc(OC)c1OS(=O)(=O)c1ccc(NC(C)=O)cc1	12	-0.6%	-12	-10%	4.8	3%	-30%
COc1ccccc1NC(=O)CSc1nnc(CC(=O)Nc2ccccc2F)n1C	-1	/	2	7%	-3.3	10%	-9%
Cc1cc([N+](=O)[O-])cc(C)c1OCC(=O)N/N=C/c1ccc(OC(=O)c2ccccc2Br)cc1	5	-3.1%	-4	7%	8.1	-73%	-22%
O=C1CCCCCCC1Sc1ccccc1[N+](=O)[O-] (centres undefined)	28	-0.2%	5	-1%	6.9	-30%	?
CCOC(=O)Nc1ccc(C)cc1NC(=O)OCC	24	1.4%	7	17%	1.2	17%	-2%[15.4 µM]
CN(C)c1ccc(/C=N/N=C(N)N)cc1[N+](=O)[O-]	-9	/	1	-24%	-1.3	16%	-13%[15.4 µM]
COc1ccccc1C1(CC(=O)O)CCOC(C)(C)C1 (centres undefined)	1	0.6%	1	0%	-0.5	14%	-12%
CC(C)n1cnc2cc(NCc3ccco3)ccc21	-10	?	7	-2%	7.8	-18%	-4%
O=C(c1ccccc1F)n1c2c(c3ccccc31)CCCC2	2	-0.4%	20	1%	-3.0	10%	1%
CN(C)c1nc(/C=C(\C#N)C(N)=O)c(Cl)n1-c1ccc(F)cc1	-5	0.4%	2	2%	0.7	-16%	-24%
CN(CCOc1ccccc1)CC(=O)Nc1cc([N+](=O)[O-])ccc1Cl	7	/	11	-13%	0.6	9%	-1%[15.4 µM]
O=C(O)CNS(=O)(=O)c1ccc(Br)s1	-4	-20%	0	-2%	-1.5	8%	-13%
Cc1ccc(/C=C/C2=Cc3c(sc(NC(=O)CSc4n[nH]c(N)n4)c3C#N)C(C)(C)C2)o1	-3	/	/	/	?	2.5µM*	/
C[C@@H]1CCCCO[C@H](CN(C)C(=O)Cc2ccccc2)[C@@H](C)CN([C@H](C)CO)C(=O)c2cc(NC(=O)Nc3ccccc3)ccc2O1	/	-3.8%	0	/	/	/	25%
CSc1ncccc1C(=O)OCC(=O)NC1CCS(=O)(=O)C1 (centres undefined)	-5	-1.1%	0	-6%	0.9	10%	-3%
Cc1ccnc(Nc2nc(-c3ccc(F)cc3)cs2)c1	7	-0.8%	-14	-27%	3.7	1%	2%[15.4 µM]
COc1ccc(C2=NN(C(C)=O)C(c3ccccc3)C2)cc1 (centres undefined)	-8	-2.2%	0	3%	2.9	9%	7%[15.4 µM]
CC(=O)c1cccc(S(=O)(=O)Nc2c(C)nn(C)c2C)c1	-3	-2.1%	/	4%	/	/	-4%
CN(C)c1nc(OCCNC(=O)Nc2ccccc2)nc(N(C)C)n1	1	1.6%	-1	12%	2.5	12%	7%
Cc1cc(C)cc(NC(=O)Nc2ccc(Cl)cn2)c1	3	0.1%	9	4%	-3.9	13%	-14%
CCOC(=O)c1sc(-n2[nH]c(C)cc2=O)nc1C	-7	-1.4%	-10	1%	-4.9	-5%	8%
COc1ccc(C)cc1NC(=S)N1CC(C)OC(C)C1 (centres undefined)	?	1.7%	7	9%	/	9%	19%
CC1CCN(c2c(NCc3ccc(C(=O)N4c5ccccc5CC4C)cc3)c(=O)c2=O)CC1 (centres undefined)	5	-0.5%	-21	?	2.5	9%	-34%[inhibitor]
Cc1ccc(-n2ncc(C(=O)Nc3ccc(Cl)cc3)c2C2CCNCC2)cc1C	7	/	-11	10%	0.1	8%	7%
CCN1CCN(c2ccc(S(=O)(=O)N3CCCCC3)cc2NC(=O)c2cccc(NC(C)=O)c2)CC1	5	31%	1	-8%	/	/	?
COC(=O)c1sc2nc(CSc3nc4ccc(C)cc4[nH]3)[nH]c(=O)c2c1C	5	4.7%	-5	6%	19	-6%	-33%[inhibitor]
CCCCN(C(=O)c1ccc(Cl)c(S(=O)(=O)N2CCOCC2)c1)c1c(N)n(CCC)c(=O)[nH]c1=O	-9	-2.4%	/	8%	7.5	11%	-2%
O=C(C(=O)N1CCN(Cc2ccc3c(c2)OCO3)CC1)c1c[nH]c2ccccc12	0	-1.3%	-5	?	-0.4	4%	16%
O=C(CNc1ccccc1-c1ccccc1)NCc1ccccc1	-16	?	9	-7%	0.1	-14%	?
COC(=O)N/N=C/c1cn(CCCOc2ccccc2)c2ccccc12	-1	-5.3%	25	-10%	0.6	-10%	-48%[inhibitor]
CC(Sc1cccc[n+]1[O-])C(=O)Nc1cccc(S(=O)(=O)N2CCOCC2)c1 (centres undefined)	7	-2.1%	11	18%	0.6	-18%	27%[15.4 µM]
Cc1ccc(C(C(=O)NC2CCCCC2)N(C(=O)CCCC(=O)Nc2ccccn2)c2ccc3c(c2)OCCO3)cc1 (centres undefined)	0	0.1%	-2	-26%	1.2	8%	7%
COc1ccccc1C(C)NCC(=O)NC(=O)NCc1ccco1 (centres undefined)	0	-23%	3	1%	/	/	-15%
Cn1ncc(Br)c1C(=O)N/N=C/c1ccc(OS(=O)(=O)c2ccccc2)cc1	-7	0.8%	-1	-16%	-2.3	13%	21%
Cc1cccc(NC(=O)CN2CCN(C(=O)c3cccc(-n4cnnn4)c3)CC2)c1C	-10	0.6%	15	4%	/	/	-4%
O=C(CN(C(=O)CCC(=O)Nc1nccs1)c1cccc(F)c1)NCCc1ccccc1	9	/	-16	/	0.3	23%	-9%[15.4 µM]
N#C/C(=C\c1ccccc1OCc1ccc(C(=O)O)cc1)C(=O)Nc1ccc(O)cc1	-5	/	/	-34%	1.0	-13%	-1%[15.4 µM]
CCOC(=O)C1CCCN(S(=O)(=O)c2ccc(S(=O)(=O)N(CC)CC)cc2)C1 (centres undefined)	2	-0.9%	/	-19%	-2.1	7%	-51%[inhibitor]
COc1ccc(N(CC(=O)N/N=C/c2cc(Br)c(C)o2)S(=O)(=O)c2ccc(NC(C)=O)cc2)cc1	3	-1.6%	?	-4%	1.7	12%	-7%

Shown bar-delimited: part of the list above.
SMILES | TRPV1 potentiator | ClpP mod | CtBP-E1A inh | gsp antagonist | Menin-MLL FL inh | Sfp inh | gsp agonist
Cc1cccc(NC(=O)CN2CCN(C(=O)c3cccc(-n4cnnn4)c3)CC2)c1C | -10 | 0.6% | 15 | 4% | / | / | -4%
CCCCN(C(=O)c1ccc(Cl)c(S(=O)(=O)N2CCOCC2)c1)c1c(N)n(CCC)c(=O)[nH]c1=O | -9 | -2.4% | / | 8% | 7.5 | 11% | -2%

Source: PubChem
